High-throughput results: PubChem, several laboratories
T cruzi inh = inhibitors of intracellular T. cruzi growth, primary screen, luminescence, NIH3T3 host cells; T. cruzi beta-gal in NIH3T3, 90 h; inhibition, % (no concentration beside the values); actives 1.4% (n = 300,000);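 active = mean inhibition across valid replicates above about 55%, limit read from the data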;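 also: signal also drops with host cell toxicity which is not excluded here; 0% = plate median of DMSO wells and 100% = zero luminescence signal; higher percent means less beta-gal luminescence so fewer parasites; stock transfer was 50 nL into about 50 µL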
Beta cell apopt = inhibitors of cytokine-induced beta cell apoptosis, primary screen, luminescence | INS-1E cytokine-induced death, ATP luminescence, 48 h; percent of positive-control rescue, neutral wells zero | protection from apoptosis, % (no concentration beside the values) | actives 0.8% (n = 300,000) | AID 435005, 2010;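 active = all replicates at 75% or more, or half of them and the mean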;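 also: 0% = cytokine-treated negative control wells and 100% = positive control rescue; higher means more ATP so stronger rescue from cytokine killing; wells of about 40 µL received 100 nL stock; the first replicate is given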
UCH37 inh = inhibitors of human UCH37 deubiquitinase, primary screen, biochemical, Ub-AMC cleavage, fluorescence | purified proteasome/UCH37 | inhibition, % (test concentration not listed) | actives 0.33% (n = 330,000);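 active = mean of two replicates above 20%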;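 also: 0% = compound-free wells with enzyme and 100% = wells lacking proteasome; stock transfer was 100 nL into about 20 µL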
Target sequence (Q9Y5K5 whole entry, looked up): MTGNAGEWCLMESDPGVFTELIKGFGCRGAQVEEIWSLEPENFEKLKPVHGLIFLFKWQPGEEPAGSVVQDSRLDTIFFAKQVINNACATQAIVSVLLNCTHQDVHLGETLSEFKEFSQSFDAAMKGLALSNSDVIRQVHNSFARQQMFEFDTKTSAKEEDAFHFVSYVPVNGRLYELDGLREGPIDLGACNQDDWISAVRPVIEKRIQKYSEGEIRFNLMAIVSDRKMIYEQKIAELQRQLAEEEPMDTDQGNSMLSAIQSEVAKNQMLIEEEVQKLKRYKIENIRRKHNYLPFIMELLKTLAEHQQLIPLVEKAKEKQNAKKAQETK
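Signal – fluorescence, ex 355 nm, em 460 nm · System – Proteasome-bound UCH37 · Input – 0.15 nM proteasome as dispensed · Timing – 30 min preincubation with enzyme, 25 min cleavage at room temperature · Read-out basis – percent inhibition of cleavage signal versus uninhibited and no-proteasome wells · Medium – Tris-HCl pH 7.4 with ATP-MgCl2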
FGF22 binding = binders of human FGF22 protein, primary screen, FGF22 synaptogenesis inhibitor project, biophysical, thermal shift, single point | Fibroblast growth factor 22 (Homo sapiens), Q9HCT0 | recombinant FGF22 thermal shift, SYPRO orange fluorescence; percent of sucrose octasulfate shift, DMSO zero | calls only at 9.99 µM | actives 1.5% (n = 340,000);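 active = melting point raised past a set limit in the mean and every replicate; three in four hits are not shown here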
Target sequence (Q9HCT0 whole entry, looked up): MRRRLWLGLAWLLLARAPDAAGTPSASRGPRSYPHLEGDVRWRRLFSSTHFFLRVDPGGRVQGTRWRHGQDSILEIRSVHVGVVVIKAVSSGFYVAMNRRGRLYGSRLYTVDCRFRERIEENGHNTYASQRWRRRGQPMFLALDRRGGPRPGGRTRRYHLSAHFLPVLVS
A1 inh = caspase 3/7 activation in MEF A1-2A-BIM cells, primary screen, A1 inhibitor project, cell-based, luminescence, HTS | AID 2462, 2010 | actives 0.066% (n = 330,000) | caspase activation, % (concentration not given with the values) | Caspase-Glo 3/7 luminescence, 3 h; percent of clofoctol response, vehicle zero;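 active = over half of replicate activation scores above 10%, or exactly half above 10 with the replicate mean above 10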;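 also: wells of about 30 µL received 50 nL stock; many hits fall short of the cut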
Ecoli growth = E. coli growth inhibition, primary screen, OD600; actives 0.21% (n = 330,000); OD600 absorbance (concentration not given with the values); Escherichia coli growth, 23 h; hits give low values;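 active = OD600 absorbance below the run mean of sample wells minus 3.6 SD, in any replicate, cut at about 0.56 in these data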;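 also: stock transfer was 300 nL into about 60 µL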
rRNA inh HTS = reduced GFP signal of wild-type E. coli, primary screen, bacterial rRNA inhibitor project, GFP/RFP fluorescence, OD600, single point; E. coli WT GFP vs humanized-ribosome RFP mutants, 24 h; hits give low values; DMSO median 0, no signal -100; GFP signal change (wild-type ribosome), % (concentration not given with the values); actives 1.6% (n = 350,000);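 active = significant combined selectivity score with lowered wild-type GFP, culture density cut under 30%, mutant RFP and density less affected; inactive = any of these conditions unmet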; also: one replicate is shown; some compounds called inactive have numbers as strong as hits
AF4-AF9 inh = inhibitors of AF4 peptide binding to AF9, primary screen, biochemical, AlphaScreen, biotin-AF4 peptide, FLAG-AF9, single point; Protein AF-9 (Homo sapiens), P42568; inhibition, % at 10 µM; actives 0.47% (n = 350,000);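 active = every replicate reaching a set inhibition limit, whatever the replicate mean, cut at about 25% in these data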;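 also: 0% = plate neutral control median and 100% = total signal loss; the record names both 10 and 1 µM as test concentration; the first replicate is given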
Target sequence (P42568 whole entry, looked up): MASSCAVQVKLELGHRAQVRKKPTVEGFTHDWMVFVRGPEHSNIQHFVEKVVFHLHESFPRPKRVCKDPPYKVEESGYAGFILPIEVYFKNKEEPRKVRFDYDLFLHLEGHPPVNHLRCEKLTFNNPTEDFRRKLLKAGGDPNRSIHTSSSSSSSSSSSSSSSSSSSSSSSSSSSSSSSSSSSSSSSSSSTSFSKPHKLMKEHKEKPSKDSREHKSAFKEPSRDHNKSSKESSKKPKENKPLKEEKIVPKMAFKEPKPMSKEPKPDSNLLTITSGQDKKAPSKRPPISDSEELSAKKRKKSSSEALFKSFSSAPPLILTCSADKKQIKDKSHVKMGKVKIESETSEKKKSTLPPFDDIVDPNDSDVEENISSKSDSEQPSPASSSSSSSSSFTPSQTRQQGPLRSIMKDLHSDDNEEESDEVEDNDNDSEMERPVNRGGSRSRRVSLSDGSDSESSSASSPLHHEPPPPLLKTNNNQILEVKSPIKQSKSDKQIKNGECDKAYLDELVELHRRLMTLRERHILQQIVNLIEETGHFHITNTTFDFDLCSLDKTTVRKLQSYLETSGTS
rRNA inh HTS OD600 = further read-out of rRNA inh HTS, marked with its call; OD600 change, %; measured here: OD600 growth;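 optical density of the mix in the first replicate; 0 = DMSO median and -100 = no signal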
rRNA inh HTS RFP = recorded beside rRNA inh HTS, whose call it bears; RFP signal change, %; measured here: RFP humanized mutant strains;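 first replicate; 0 = DMSO median and -100 = no signal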
An asterisk follows results filed as active; i = inactive; x = not tested or not shown; & = joins results of further samples.

SMILES | T cruzi inh | Beta cell apopt | UCH37 inh | FGF22 binding | A1 inh | Ecoli growth | rRNA inh HTS | rRNA inh HTS OD600 | rRNA inh HTS RFP | AF4-AF9 inh
CCn1ccnc1CN1CCCC(C(=O)c2ccc(OC)cc2OC)C1 (stereo unspecified) | 1.2 | -6.3 | 0.1 | i | -0.2 | 0.638 | 0.5 | 5.2 | -8.8 | 2.3
COC(=O)C[C@]1(C(=O)OC)CN(C#N)N(c2ccc(Cl)cc2)C12c1ccccc1-c1ccccc12 | 49.3 | 111.6* | 5.7 | x | 0.4 | 0.704 | 17.6 | 2.0 | 3.6 | x
Cc1nc2ccccc2c(=O)n1-n1cnnc1 | -17.3 | 3.0 | -0.7 | x | 0.6 | 0.688 | x | x | x | x
C[C@]12CCC(=O)C=C1CCC1C2CC[C@@]2(C)C1CC[C@@H]2O (stereo partly specified) | x | 1.6 | -2.2 | i | -0.8 | 0.674 | -52.1 | -72.5 | -17.6 | 2.2
COc1ccc(O)c2c(=O)c3c(OC)cc4c(c3oc12)C1C=COC1O4 (stereo unspecified) | 18.8 | 23.9 | 2.7 | i | 0.9 | 0.723 | x | x | x | -0.2
Cc1cc(C)[n+](C2C3CC4CC(C3)CC2C4)o1 (stereo unspecified) | -36.5 | 4.2 | -1.4 | i | 0.1 | 0.648 | 2.5 | 8.6 | -4.7 | 2.0
O=c1[nH]c(O)c(C=Nc2ccc(F)c(Cl)c2)c(=O)[nH]1 | -9.4 | x | 2.3 | i | -0.5 | 0.708 | 7.7 | 13.9 | 0.5 | 0.6
COC(=O)C1=C(c2ccc(C(C)=O)cc2)C[C@@H]2CC[C@H]1N2C(=O)N1CCCC1 | x | 3.3 | 1.4 | i | 1.9 | x | 14.4 | 12.2 | -10.3 | -0.5
Clc1cccc(N2CCNCC2)c1Cl | -1.6 | x | 7.0 | x | 0.4 | 0.643 | x | x | x | x
Cc1c2cnn(CC(=O)N3CCC4(CC3)OCCO4)c(=O)c2c(C)n1Cc1cccc(Cl)c1 | -0.6 | 5.1 | -1.1 | i | -0.3 | 0.619 | 0.6 | -6.3 | 0.9 | 1.8
Cc1nc(Cl)sc1C(=O)Nc1ccc2ccccc2c1 | -5.2 | 0.5 | -0.6 | i | -3.2 | 0.604 | -30.7* | -16.2* | -9.1* | -3.2
O=C(c1ccccc1)c1cn(CC(=O)N2CCOCC2)c2ccccc12 | -5.3 | -3.8 | 7.5 | x | -1.1 | 0.722 | x | x | x | x
C=CCn1c(O)c(C=Nc2ccc(N(CC)CC)cc2)c(=O)[nH]c1=O | 34.5 | x | -26.5 | x | -1.0 | 0.699 | x | x | x | x
CCC1(CC)C(=O)C=CNC1=O | x | x | 0.1 | i | -0.5 | 0.693 | x | x | x | -1.5
CC(=O)O[C@@]12CO[C@@H]1C[C@H](O)[C@@]1(C)C(=O)[C@H](O)C3=C(C)[C@@H](O)C[C@@](O)([C@@H](OC(=O)c4ccccc4)C12)C3(C)C (stereo partly specified) | 11.2 | 2.6 | 1.7 | i | -0.2 | 0.754 | x | x | x | -1.2
CC12CCC(=O)C=C1CC(O)C1C2CCC2(C)C1CCC2(C)O (stereo unspecified) | x | x | -1.3 | i | x | 0.65 | 2.7 | 2.0 | -0.5 | -1.3
CCOC(=O)c1c(-n2c(C)cc(C=C3C(=O)NC(=S)NC3=O)c2C)sc2c1CCCC2 | -13.7 | -4.1 | 7.1 | x | 0.9 | 0.681 | x | x | x | x
Cc1cc2ccccn2c1C(C[N+](=O)[O-])c1c(F)cccc1Cl (stereo unspecified) | 29.6 | x | x | i | 2.6 | x | 0.9 | 7.5 | 1.0 | 25.5*
CCCCn1c(O)c(C(CC)=NCc2ccc3c(c2)OCO3)c(=O)[nH]c1=O | 13.9 | 5.6 | -0.5 | x | -0.9 | 0.728 | x | x | x | x
O=C(Nc1nccs1)C(Cl)(Cl)Cl | -12.0 | -1.2 | 0.3 | i | 0.7 | 0.614 | -9.6 | 8.1 | 3.7 | -0.3
CC(C)c1ccc(C2N3CCCN23)cc1 (stereo unspecified) | -24.2 | -3.2 | 0.8 | x | 0.5 | 0.68 | x | x | x | x
COC(=O)c1cccc(N=Cc2c(O)n(Cc3ccc(F)cc3)c(=O)[nH]c2=O)c1 | -2.3 | -7.2 | -348.5 | i | 1.0 | 0.666 | 2.8 | 4.1 | -0.4 | -2.4
CCC(=NCCCO)c1c(O)n(-c2ccc(OC)cc2)c(=O)[nH]c1=O | -5.8 | 1.5 | 1.5 | x | -0.5 | 0.704 | x | x | x | x
COC(=O)C1=C(c2cc3ccccc3s2)C[C@@H]2CC[C@H]1N2C(=O)NCc1ccc(F)cc1 | -7.7 | -11.0 | -5.0 | i | -0.3 | 0.8 | -19.9 | -32.4 | -20.7 | 11.3
Cc1ccc(C2(O)CCN3CCCCC32)cc1 (stereo unspecified) | 17.0 | -6.5 | 1.5 | x | 1.0 | 0.705 | x | x | x | x

Grouped by structure: those above with a thiophene ring, fused or not.
SMILES | T cruzi inh | Beta cell apopt | UCH37 inh | FGF22 binding | A1 inh | Ecoli growth | rRNA inh HTS | rRNA inh HTS OD600 | rRNA inh HTS RFP | AF4-AF9 inh
CCOC(=O)c1c(-n2c(C)cc(C=C3C(=O)NC(=S)NC3=O)c2C)sc2c1CCCC2 | -13.7 | -4.1 | 7.1 | x | 0.9 | 0.681 | x | x | x | x
COC(=O)C1=C(c2cc3ccccc3s2)C[C@@H]2CC[C@H]1N2C(=O)NCc1ccc(F)cc1 | -7.7 | -11.0 | -5.0 | i | -0.3 | 0.8 | -19.9 | -32.4 | -20.7 | 11.3

(list continues)
SMILES | T cruzi inh | Beta cell apopt | UCH37 inh | FGF22 binding | A1 inh | Ecoli growth | rRNA inh HTS | rRNA inh HTS OD600 | rRNA inh HTS RFP | AF4-AF9 inh
C[N+]1(C)CCOC(O)(c2ccc(-c3ccc(C4(O)C[N+](C)(C)CCO4)cc3)cc2)C1 (stereo unspecified) | -21.5 | -4.3 | 1.0 | i | -0.5 | 0.688 | 19.9 | 18.6 | 1.6 | -0.1
CCOc1cc(C(=O)N2CCC3(CC2)OCCO3)cc(OCC)c1OCC | -0.5 | -3.3 | 6.6 | i | -0.2 | 0.732 | 14.3 | 10.1 | -5.7 | 1.3
CN1CCC2(O)OCCCC2C1 (stereo unspecified) | 3.1 | -0.9 | 1.9 | i | -0.4 | 0.673 | 14.6 | 12.9 | 0.7 | -5.6
C=CCN1C(=O)NC(=O)/C(=C/c2ccoc2)C1=O | -5.4 | 0.1 | 3.0 | x | -0.4 | 0.692 | x | x | x | x
Cc1ccc(-n2c(O)c(/C=N/c3ncc(Br)cc3Br)c(=O)[nH]c2=O)cc1 | -7.4 | 3.5 | x | i | 0.1 | x | 27.8 | 15.2 | 9.1 | -1.4
COc1ccc(C(=O)OC2C[C@H]3CC[C@@H](C2)N3O)cc1OC (stereo partly specified) | -15.4 | 0.2 | 1.0 | i | 0.4 | 0.63 | 15.8 | 26.6 | 6.0 | 3.4
c1ccc2c(c1)CSc1ccccc1C2C1=NCCN1 (stereo unspecified) | 10.8 | -5.1 | 4.5 | x | 1.6 | 0.699 | x | x | x | x
O=C(O)CSC(=S)N1CC2CC(C1)c1cccc(=O)n1C2 (stereo unspecified) | -4.1 | -4.6 | 3.3 | i | -0.7 | 0.643 | 9.3 | 9.2 | 0.1 | -2.2
O=C(c1cc(-c2ccc(Cl)cc2)n(-c2ccc(Cl)cc2Cl)n1)N1CCOCC1 | 20.8 | -7.8 | 5.8 | x | -0.3 | 0.71 | x | x | x | x
COc1cc2occc2c2oc(=O)ccc12 | -11.8 | 3.5 | -0.1 | i | 0.6 | 0.713 | 6.7 | -0.1 | 0.8 | 0.3
N[C@@H](Cc1ccc(N(CCCl)CCCl)cc1)C(=O)O | x | 10.9 | 1.6 | i | 2.2 | x | 5.3 | 4.7 | 11.3 | -1.0
CN(C)CCCN=Cc1c(O)n(CCc2ccccc2)c(=O)[nH]c1=O | 19.0 | -5.1 | 1.3 | x | 0.4 | 0.723 | x | x | x | x
COc1cc2nc(CN3CC=C(c4ccccc4)CC3)[nH]c(=O)c2cc1OC | 31.8 | 1.0 | -0.9 | i | 0.2 | 0.715 | 7.1 | 7.2 | -2.4 | -30.2
Cc1ccccc1/C=C\c1nc(O)c([N+](=O)[O-])c(=O)[nH]1 | -5.0 | -2.5 | 11.3 | i | 0.7 | 0.686 | 6.2 | 8.6 | 6.9 | -2.1
CC1(C)CN2C(c3ccc(Cl)cc3)N2C1 (stereo unspecified) | -11.0 | -7.1 | -0.6 | x | 0.4 | 0.701 | x | x | x | x
COc1cccc(C2CCN(CC(=O)Nc3cc(Cl)ccc3OC)CC2O)c1 (stereo unspecified) | 10.9 | 2.0 | 4.7 | i | 0.2 | 0.666 | -12.0 | -29.9 | -1.1 | -1.3
O=C(c1ccc2nc(-c3ccco3)c(-c3ccco3)nc2c1)N1CCC2(CC1)OCCO2 | x | 0.1 | -25.4 | x | -1.5 | 0.727 | x | x | x | x
N[C@@H]1CC[C@@]2(O)[C@H]3Cc4ccc(O)c5c4[C@@]2(CCN3CC2CC2)C1O5 (stereo partly specified) | x | x | 1.1 | i | x | 0.772 | 2.0 | 9.6 | 0.3 | x
CC(=O)NN1C(=O)c2ccccc2NC1c1cccnc1 (stereo unspecified) | -5.3 | x | -314.3 | x | 0.5 | 0.662 | 11.2 | 10.9 | 0.3 | -1.5
C=C1[C@H]2CC[C@H]3[C@]4(C)C[C@H](O[C@@H]5OC(CO)[C@@H](OSOOO)[C@H](OS(=O)(=O)O)[C@H]5OC(=O)CC(C)C)C[C@@H](C(=O)O)[C@H]4CC[C@]3(C2)[C@H]1O (stereo partly specified) | x | -9.0 | -1.9 | i | 1.4 | 0.758 | 9.3 | 16.6 | 1.0 | -15.7
CCc1nc2ccccc2c(=O)n1-c1cccc(OC)c1 | -3.6 | -3.7 | 0.0 | x | 0.3 | 0.648 | x | x | x | x
Cn1c(O)c(C(c2ccncc2)c2c(O)n(C)c(=S)n(C)c2=O)c(=O)n(C)c1=S | -15.0 | 2.1 | 1.6 | x | -0.5 | 0.758 | x | x | x | x
NCC(O)c1ccc(O)cc1 (stereo unspecified) | -9.6 | x | 1.9 | i | 0.3 | 0.667 | 2.3 | 7.9 | -3.7 | 1.9&0.2
COC(=O)C(O)(c1ccc(NC(=O)Oc2ccccc2)cc1)C(F)(F)F (stereo unspecified) | -3.5 | 3.6 | 3.8 | x | -0.5 | 0.631 | x | x | x | x

Shown with tabs: 3 of the compounds above
SMILES	T cruzi inh	Beta cell apopt	UCH37 inh	FGF22 binding	A1 inh	Ecoli growth	rRNA inh HTS	rRNA inh HTS OD600	rRNA inh HTS RFP	AF4-AF9 inh
COc1cc2occc2c2oc(=O)ccc12	-11.8	3.5	-0.1	i	0.6	0.713	6.7	-0.1	0.8	0.3
CN(C)CCCN=Cc1c(O)n(CCc2ccccc2)c(=O)[nH]c1=O	19.0	-5.1	1.3	x	0.4	0.723	x	x	x	x
CCc1nc2ccccc2c(=O)n1-c1cccc(OC)c1	-3.6	-3.7	0.0	x	0.3	0.648	x	x	x	x

These rows are one share of the data; the hit share may differ from the screen's.
